GIRK2 activ: activators of human GIRK2 potassium channels; calls only for hits at 25 µM; HEK293-GIRK2 thallium flux, Thallos fluorescence; AID 1259325; 0.05% of 63,000 active; P48051;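 active = among the strongest 0.2% of first-round signals and kept after retests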;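 note: first round at about 10 µM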
Target sequence (P48051 whole entry, looked up): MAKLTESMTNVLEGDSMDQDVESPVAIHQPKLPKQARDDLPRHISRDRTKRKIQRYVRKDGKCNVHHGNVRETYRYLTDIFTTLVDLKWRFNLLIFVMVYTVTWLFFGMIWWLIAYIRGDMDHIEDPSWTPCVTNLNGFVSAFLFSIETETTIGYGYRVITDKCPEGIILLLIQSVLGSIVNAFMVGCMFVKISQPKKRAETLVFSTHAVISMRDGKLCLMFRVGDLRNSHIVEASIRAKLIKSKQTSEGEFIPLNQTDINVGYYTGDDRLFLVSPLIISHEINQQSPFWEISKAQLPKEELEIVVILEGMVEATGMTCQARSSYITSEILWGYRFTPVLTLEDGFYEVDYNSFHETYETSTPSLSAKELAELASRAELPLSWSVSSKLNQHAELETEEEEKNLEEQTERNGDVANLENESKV
Calls only; i = inactive.

Sample of the layout (three entries):
SMILES	GIRK2 activ
O=C(COc1ccccc1F)N1CCN(Cc2csc(-c3ccccc3)n2)CC1	i
CCCCC/C=C\C/C=C\CCCCCCCC(=O)NCCO	i
Cc1csc(C(=O)NCC#CCN(C)C)c1	i

This part in full, from the first entry:
SMILES	GIRK2 activ
O=C(COc1ccccc1F)N1CCN(Cc2csc(-c3ccccc3)n2)CC1	i
CCCCC/C=C\C/C=C\CCCCCCCC(=O)NCCO	i
Cc1csc(C(=O)NCC#CCN(C)C)c1	i
O=C(Cc1cccs1)N1CCN(CC(O)c2cccs2)CC1 (stereo not given)	i
O=C(CSc1nc2ccccc2s1)N1CC2CC(C1)c1cccc(=O)n1C2 (stereo not given)	i
COC(/C=C/CC/C=C/C(=O)O)C(O)C(C)/C=C(\C)C(O)C(C)C(=O)CCCC1CC(=O)NC(=O)C1 (stereo not given)	i
O=C(c1ccc([N+](=O)[O-])o1)N1CC2CC(C1)c1cccc(=O)n1C2 (stereo not given)	i
CN(C)CC1COCCN1C(=O)COc1ccccc1 (stereo not given)	i
O=C(O)CCCc1ccc(N(CCCl)CCCl)cc1	i
Cc1oc2ccc(OC(=O)N(C)C)cc2c1C(=O)OC(C)C	i
CCC(C)/C=C(C)/C=C/C1=CC2=C(Cl)C(=O)C(C)(OC(C)=O)C(=O)C2=CO1 (stereo not given)	i
Cn1cc(CC(=O)N2CCN(CC(O)C3CC3)CC2)c2ccccc21 (stereo not given)	i
COc1ccc(/C=C2\Oc3c(ccc(OC(=O)N(C)C)c3C)C2=O)cc1	i
Cc1ccc(C(=O)CCl)cc1C	i
COc1ccc(NC(=O)c2cc3cccnc3n(Cc3ccc(Cl)cc3)c2=O)cc1	i
CC(=O)Nc1cccc(NC(=O)c2cc3cccnc3n(Cc3ccc(F)cc3)c2=O)c1	i
O=C(c1ccc(-n2cccc2)cc1)N1CC2CC(C1)c1cccc(=O)n1C2 (stereo not given)	i
Cc1ccccc1/C=C1\Oc2cc(OC(=O)N(C)C)ccc2C1=O	i
COc1ccc2cc(C(C#N)OC(=O)OCC3OC3c3ccccc3)ccc2c1 (stereo not given)	i
COCC(=O)NCC#CCN(C)Cc1ccccc1	i
Cc1csc(CN2CCN(C(=O)COc3ccc(Cl)cc3Cl)CC2)n1	i
c1cc2ccc(N3CCNCC3)cc2cn1	i
Cc1cc2oc(=O)cc(CN3CC4CC(C3)c3cccc(=O)n3C4)c2cc1C (stereo not given)	i
COc1ccc(CCNC(=O)c2cc3cccnc3n(Cc3ccccc3F)c2=O)cc1OC	i
CCOC(=O)c1c(-c2ccccc2)oc2ccc(OC(=O)N(C)C)cc12	i

As a short view, part of the list above.
SMILES	GIRK2 activ
O=C(COc1ccccc1F)N1CCN(Cc2csc(-c3ccccc3)n2)CC1	i
CCCCC/C=C\C/C=C\CCCCCCCC(=O)NCCO	i
Cc1csc(C(=O)NCC#CCN(C)C)c1	i
O=C(Cc1cccs1)N1CCN(CC(O)c2cccs2)CC1 (stereo not given)	i
O=C(CSc1nc2ccccc2s1)N1CC2CC(C1)c1cccc(=O)n1C2 (stereo not given)	i

Other entries follow:
SMILES	GIRK2 activ
COc1ccc(OC)c(NC(=O)c2c(O)c3sccc3n(Cc3ccccc3)c2=O)c1	i
COCCNC(=O)c1c(N)n(Cc2ccc3c(c2)OCO3)c2nc3ccccc3nc12	i
O=C(COc1ccc(F)cc1)N1CCN(Cc2nnnn2-c2ccc(Cl)cc2)CC1	i
CCN1C[C@]2(COC)CC[C@H](O)[C@@]34C5C[C@@H]6[C@@H](OC)C[C@@](OC(C)=O)(C5[C@@H]6OC(C)=O)C([C@H](OC)C23)[C@@H]14 (stereo not given in full)	i
Cc1ccc(Cl)cc1NC(=O)c1cc2cccnc2n(Cc2ccc(F)cc2)c1=O	i
Cc1cc(S(=O)(=O)NCC#CCN(C)C)c(Cl)cc1Cl	i
O=C(COc1ccc(Cl)cc1)N1CCCSCC1CN1CCCC1 (stereo not given)	i
CC(C)c1cccc(C(C)C)c1O	i
Cc1ccc2nc(N(CCN3CCOCC3)C(=O)COc3ccccc3)sc2c1	i
COc1ccc(CC(=O)N2CCOCC2CN(C)C)cc1OC (stereo not given)	i
COc1cc(CN2CCN(CC(C)O)CC2)cc(OC)c1 (stereo not given)	i
CN(C)CCN(C(=O)Cc1ccc(F)cc1)c1nc2c(S(C)(=O)=O)cccc2s1	i
O=C(/C=C/c1ccco1)NCC#CCN1CCOCC1	i
Cc1noc(C)c1CC(=O)N1CCN(CC(O)c2cccs2)CC1 (stereo not given)	i
O=C(Cc1ccc(F)cc1)N1CCN(CC(O)c2ccco2)CC1 (stereo not given)	i
O=C(CC(c1ccccc1)c1ccccc1)N1CC2CC(C1)c1cccc(=O)n1C2 (stereo not given)	i
C/C=C1/CN2C3CC1C(CO)(C(=O)OC)C2Cc1c3n(C)c2ccccc12 (stereo not given)	i
CCCCC/C=C\C/C=C\C/C=C\C/C=C\CCC(C)C(=O)NCCF (stereo not given)	i
CS(=O)(=O)N1CCC(C(=O)N2CCC3(CC2)OCCCO3)CC1	i
O=C(COc1ccccc1)N1CCN(CC(O)c2ccco2)CC1 (stereo not given)	i
O=C1NC2(CCNCC2)N=C1c1ccccc1	i
CCCCCC(=O)N[C@H]1CCOC1=O	i
COc1ccc(/C=C2\Oc3cc(OC(=O)N(C)C)ccc3C2=O)c(OC)c1OC	i
O=[N+]([O-])c1cc(I)cc([N+](=O)[O-])c1	i
O=C(Cc1ccccc1)N1CCN(Cc2nc3ccccc3[nH]2)CC1	i

Part of the list above, field by field:
COc1ccc(OC)c(NC(=O)c2c(O)c3sccc3n(Cc3ccccc3)c2=O)c1
  GIRK2 activ: i

COCCNC(=O)c1c(N)n(Cc2ccc3c(c2)OCO3)c2nc3ccccc3nc12
  GIRK2 activ: i

Continuation.
SMILES	GIRK2 activ
O=C(Cc1ccccc1Cl)N1CCN(CCn2ccnc2-c2ccccc2)CC1	i
O=C(NCC#CCN1CCOCC1)C1CC=CCC1 (stereo not given)	i
O=C(COc1ccc(Cl)cc1)N1CCN(Cc2nc3ccccc3[nH]2)CC1	i
CO[C@@H]1[C@H](O)[C@@H](O[C@@H]2C[C@H]3CC[C@@H]4C(CC[C@]5(C)[C@@H](C6=CC(=O)OC6)CC[C@]45O)[C@@]3(C)[C@H](O)C2)O[C@H](C)[C@@H]1O[C@@H]1O[C@H](CO)[C@@H](O)[C@H](O)[C@H]1O (stereo not given in full)	i
NC(=O)c1ccc(NC(=O)c2cc3cccnc3n(Cc3ccc(F)cc3)c2=O)cc1	i
COc1ccccc1OCC(=O)N1CCN(Cc2nc(C3CC3)cs2)CC1	i
c1ccc2c(c1)Nc1ccccc1S2	i
Cc1ccc(/C=C/S(=O)(=O)NCC#CCN(C)C)cc1	i
Oc1cc(Cl)ccc1Oc1ccc(Cl)cc1Cl	i
CCCCC/C=C\C/C=C\C/C=C\C/C=C\CCCC(N)=O	i
CCNC(=O)NCC#CCN(CC)CC	i
C=CCCC(=O)NCC#CCN(C)Cc1ccccc1	i
CCCN(CCCN)N(O)N=O	i
CC(C)[C@]12O[C@H]1[C@@H]1O[C@]13[C@]1(O[C@H]1C[C@H]1C4=C(CC[C@@]13C)C(=O)OC4)[C@@H]2O	i
CCOC(=O)NCC#CCN(C)C	i
CC1=CC[C@@H]2[C@@H](C1)c1c(O)cc(C(C)(C)CCCCn3ccnc3)cc1OC2(C)C	i
COc1cc(C2c3cc4c(cc3C(O)C3COC(=O)C23)OCO4)cc(OC)c1O (stereo not given)	i
O=C1Nc2ccc(Cl)cc2C(c2ccccc2Cl)=NC1O (stereo not given)	i
Cc1noc(C)c1CN1CCN(C(=O)COc2ccccc2)CC1	i
CCCC(=O)Nc1ccc2nc(C)n(-c3ccccc3)c(=O)c2c1	i
Cn1cc(C2=C(c3cn(CCCN/C(N)=N\[N+](=O)[O-])c4ccccc34)C(=O)NC2=O)c2ccccc21	i
CC(C)c1ccc(OCC(=O)N2CCN(Cc3nc4ccccc4[nH]3)CC2)cc1	i
Cc1nnsc1C(=O)NCC#CCN1CCCCC1	i
COCCCN1Cc2ccccc2C1=N	i
Cc1cc(C)nc(Nc2nc(CC(=O)N3CCN(C4CCCCC4)CC3)cs2)n1	i

5 compounds picked at random from those above, as already listed:
SMILES	GIRK2 activ
O=C1Nc2ccc(Cl)cc2C(c2ccccc2Cl)=NC1O (stereo not given)	i
COc1cc(CN2CCN(CC(C)O)CC2)cc(OC)c1 (stereo not given)	i
COc1ccc(OC)c(NC(=O)c2c(O)c3sccc3n(Cc3ccccc3)c2=O)c1	i
O=C(COc1ccc(F)cc1)N1CCN(Cc2nnnn2-c2ccc(Cl)cc2)CC1	i
Cc1cc(C)nc(Nc2nc(CC(=O)N3CCN(C4CCCCC4)CC3)cs2)n1	i

(continued)
SMILES	GIRK2 activ
Cn1nc(C(=O)Nc2cccc(Cl)c2F)c2ccccc21	i
CN1CCN(C(=O)O[C@H]2c3nccnc3C(=O)N2c2ccc(Cl)cn2)CC1	i
Cc1oc2cc(OC(=O)N(C)C)ccc2c(=O)c1-c1nc2ccccc2s1	i
O=C(NCCN1CCN(C(=O)Cc2ccc(F)cc2)CC1)c1ccsc1	i
CC[C@@H](C(N)=O)N1CCCC1=O	i
O=C(Nc1cccc(Cl)c1)c1cc2cccnc2n(Cc2ccccc2F)c1=O	i
O=C(Cn1cnc2ccccc2c1=O)N1CC2CC(C1)c1cccc(=O)n1C2 (stereo not given)	i
COC[C@H]1OC(=O)c2coc3c2[C@@]1(C)C1=C(C3=O)C2CCC(=O)[C@@]2(C)C[C@H]1OC(C)=O (stereo not given in full)	i
CN(C)C(=O)Oc1ccc2c(c1)O/C(=C\c1ccc([N+](=O)[O-])cc1)C2=O	i
O=C(O)CC1=C/C(=C\c2ccc(F)c3ccccc23)c2ccc(F)cc21	i
CCCCC/C=C\C/C=C\C/C=C\C/C=C\CCCC(=O)N[C@H](C)CO	i
CCCn1c(C)c(C(=O)c2cccc3ccccc23)c2ccccc21	i
Oc1cc2c(cc1O)[C@H]1c3ccccc3CN[C@@H]1CC2	i
COc1ccccc1OCC(=O)N1CCN(CC(O)C2CC2)CC1 (stereo not given)	i
NCCN1CCN(c2ccc(F)cc2)CC1	i
Cc1cc2oc(=O)cc(CN3CC4CC(C3)c3cccc(=O)n3C4)c2cc1O (stereo not given)	i
CN(C)CC#CCNC(=O)c1ccc(C(C)(C)C)cc1	i
CCOc1ccc(CNCCc2c(C)[nH]c3ccc(Cl)cc23)cc1	i
Cc1ccc(-c2nc3ccc(C)cn3c2CC(=O)N(C)C)cc1	i
O=C(/C=C/c1cccs1)N1CC2CC(C1)c1cccc(=O)n1C2 (stereo not given)	i
O=C(Cc1ccc(F)cc1)N1CCN(Cc2nc3ccccc3n2Cc2ccccc2)CC1	i
CN(C)CC#CCNC(=O)c1c(F)cccc1Cl	i
C/C=C1/C[N+]2(C)C3CC1C(CO)C2Cc1c3[nH]c2ccc(O)cc12 (stereo not given)	i
O=C(Nc1ccc2c(c1)OCO2)c1cc2cccnc2n(Cc2ccc(F)cc2)c1=O	i
CCCCCCC(=O)O[C@H]1CC[C@H]2[C@@H]3C[C@H](O)C4=CC(=O)CC[C@]4(C)[C@H]3CC[C@]12C	i

Next part
SMILES	GIRK2 activ
CCCCCCCC(=O)OCC(CS[P+](=O)[O-])OC(=O)CCCCCCC (stereo not given)	i
COc1ccccc1CC(=O)N1CCN(Cc2nncn2C2CCCCC2)CC1	i
CN(C)CC#CCNC(=O)NCc1ccccc1	i
O=C(COc1ccc2ccccc2c1)N1CCN(Cc2nnnn2-c2cccc(F)c2)CC1	i
Cc1ccccc1OCC(=O)N1CCN(CCn2cccn2)CC1	i
C[C@]12CCC(=O)C=C1CC[C@@H]1[C@@H]2CC[C@@]2(C)[C@H]1CC[C@]2(C)O	i
C=CCCC(=O)NCC#CCN1CCOCC1	i
NCCc1ccccn1	i
Cc1csc(CN2CCN(C(=O)Cc3cccs3)CC2)n1	i
CCC1C(=O)NC(=O)NC1=O	i
O=C(Cc1ccccc1)N1CCN(Cc2csc(-c3ccccc3)n2)CC1	i
CCOc1ccccc1Oc1coc2cc(OC(=O)N(C)C)ccc2c1=O	i
COc1ccccc1/C=C/C=C1\Oc2cc(OC(=O)N(C)C)ccc2C1=O	i
NC1N=C(c2ccccc2)c2ccccc2NC1=O (stereo not given)	i
O=C(c1nc2ccccc2s1)N1CC2CC(C1)c1cccc(=O)n1C2 (stereo not given)	i
CN[C@H]1C[C@@H]2O[C@](C)([C@H]1OC)n1c3ccccc3c3c4c(c5c6ccccc6n2c5c31)C(=O)NC4	i
O=C(Nc1ccc([N+](=O)[O-])cc1)c1cc2cccnc2n(Cc2ccccc2)c1=O	i
CN(C)C(=O)Oc1cccc(NS(=O)(=O)N2CCOCC2)c1	i
O=C(Oc1ccc([N+](=O)[O-])cc1)N1CCC(C(O)(c2ccc3c(c2)OCO3)c2ccc3c(c2)OCO3)CC1	i
C[C@]12CC[C@H](O)CC1=CC[C@@H]1C2CC[C@]2(C)[C@@H](C3=CC(=O)OC3)CC[C@]12O (stereo not given in full)	i
O=C1C=CC(O)(CC(=O)OC[C@H]2O[C@@H](OC(=O)CC3(O)C=CC(=O)C=C3)[C@H](OC(=O)Cc3ccccc3)[C@@H](O)[C@@H]2O)C=C1	i
O=C(Nc1ccc(Br)cc1)c1cc2cccnc2n(Cc2ccccc2F)c1=O	i
COc1ccc(C2C(C#N)=C(N)Oc3c2c(=O)oc2ccccc32)c(OC)c1 (stereo not given)	i
O=C(Cc1ccccc1)NCC#CCN1CCCCC1	i
O=C(COc1ccc(Cl)cc1Cl)N1CCN(Cc2nnnn2-c2ccccc2)CC1	i
O=C(Nc1ccc(OC(F)(F)F)cc1)c1cc2cccnc2n(Cc2ccccc2)c1=O	i
CN(CCO)CC1COCCN1C(=O)Cc1ccc(F)cc1 (stereo not given)	i
CC(C)Sc1ccc(CC(=O)N2CCN(CCn3cccn3)CC2)cc1	i
COc1ccc(C(CN(C)C)C2(O)CCCCC2)cc1 (stereo not given)	i

Source: PubChem BioAssay (Vanderbilt University)

A portion of the library; count on the stated rates, not on these rows.
